# Bioassay records: PubChem BioAssay, National Center for Advancing Translational Sciences (NCATS)
# VDR inh = blocks the human vitamin D receptor; Potency, µM, for inactives: max response, negative = inhibition, most hits filed as inhibitors; AID 504847; 400,000 tested, 0.93% active; VDR-SRC2-3 peptide fluorescence polarization, 2 h; P11473; active means well fitted inhibition curve with a large enough effect; inconclusive means small, poorly fitted or top-dose-only effect, or another doubt; inactive means no such curve, though single readings can be large or run the other way; further: series mostly up to about 120 µM
# Target sequence (P11473 whole entry, looked up): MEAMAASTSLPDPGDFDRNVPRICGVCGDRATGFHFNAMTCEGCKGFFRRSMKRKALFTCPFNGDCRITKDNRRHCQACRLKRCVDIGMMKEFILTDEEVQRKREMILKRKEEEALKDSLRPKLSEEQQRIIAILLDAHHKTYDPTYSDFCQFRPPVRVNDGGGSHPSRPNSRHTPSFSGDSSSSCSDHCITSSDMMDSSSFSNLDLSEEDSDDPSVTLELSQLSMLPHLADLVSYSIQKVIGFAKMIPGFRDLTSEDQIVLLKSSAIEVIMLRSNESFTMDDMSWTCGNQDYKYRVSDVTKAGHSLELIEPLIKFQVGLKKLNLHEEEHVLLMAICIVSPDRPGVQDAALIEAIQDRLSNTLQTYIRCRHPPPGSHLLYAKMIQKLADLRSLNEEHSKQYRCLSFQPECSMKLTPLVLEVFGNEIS
#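 Fluorescence polarization assay measuring small-molecule disruption of VDR binding to the coregulator peptide SRC2-3. Compounds were pin-transferred (23 nl) into the reagent mix and incubated 2 h at room temperature before reading.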
# Starred values were filed as active, the others as inactive; ? = inconclusive; & = joins results of further samples. On the % scale 0 is the no-effect control and ±100 the full control effect; potency means the concentration at half of the fitted maximal effect.
VDR inh	SMILES
-9%	CCn1c(=O)c2sccc2n2c(CCC(=O)Nc3ccc(C(C)C)cc3)nnc12
-2%	Cc1ccc(C)c(S(=O)(=O)N2CCCOC2CNC(=O)C(=O)NC2CCCC2)c1 (stereo not drawn)
6%	CCN(CC)C(=O)C1CCN(Cc2cccc(OCc3ccccc3)c2)CC1
-13%	CC(C)Cc1nnc(NC(=O)c2ccc(N3CCCC3=O)cc2)s1
0%	Cc1nnc(CN(C)C(=O)CC2C(=O)NCCN2Cc2ccccc2C)o1 (stereo not drawn)
1%	Cc1ccc(C)c(NC(=O)c2nnn(Cc3ccc(F)cc3Cl)c2N)c1
5%	c1ccc(OCC2CCNCC2)nc1
3%	COc1ccc(Cn2c(=O)oc3ccc(C)cc32)cc1
-2%	CC(C)(C)C(=O)CCN1C(=O)C2(OCCO2)c2ccccc21
-16%	O=C(N/N=C/c1cc([N+](=O)[O-])ccc1O)C1CCCCC1
8%	OCCNC(=S)Nc1cc(Cl)cc(Cl)c1
-14%	Nc1cc(C(=O)OCC(=O)N2CCN(C(=O)COC(=O)c3ccc(Cl)c(N)c3)CC2)ccc1Cl
-5%	COc1ccc(CCNC(=O)CSCc2ccc(Br)cc2)cc1OC
9%	O=C(CN1C(=O)C(=O)N(C2CCCC2)C1=O)NCCc1ccc(F)cc1
-5%	COc1ccc(S(=O)(=O)CC2(O)CCN(C(=O)CC(C)C)CC2)cc1
2%	CC(C)N(Cc1nc(-c2ccccc2)no1)C(=O)CN(C)S(=O)(=O)c1ccccc1
-14%	Cc1ccc(NC(=O)CCS(=O)(=O)c2ccc(Br)s2)cc1
-24%	C/C(CC(C)(C)C1CCCCC1)=N\NC(N)=S
-11%	Cn1c(O)c(C(C#N)=C2N=c3ccccc3=N2)c2ccccc21
-5%	CC(OC(=O)c1ccc(Br)o1)C(=O)Nc1ccc2c(c1)OCCO2 (stereo not drawn)
-4%	O=C(CCn1nc(-c2ccccc2)ccc1=O)N1CCCC1
10%	COC(=O)c1ccc(NC(=O)CNS(=O)(=O)c2cccs2)cc1
-6%	COc1ccc(N2CCN(C(=O)c3cc(=O)[nH]c4ccccc34)CC2)cc1
-11%	Cc1cc2cc(CNC(=O)Cc3cccs3)ccc2n1C
-22%	S=C(NCc1ccco1)Nc1cc(Cl)c(Cl)cc1Cl
9%	COc1cc(/C=N/NC(=O)CCN2CCN(C(c3ccccc3)c3ccccc3)CC2)ccc1O
-10%	CCN1C(=O)[C@H]2[C@@H](c3ccc(-c4ccc(C(C)=O)cc4)cc3)N[C@@](Cc3ccccc3)(C(=O)OC)[C@H]2C1=O
8%	N#C/C(=C\N1CCN(Cc2ccc3c(c2)OCO3)CC1)c1nc2ccccc2s1
-4%	O=C1CCc2cc(NS(=O)(=O)c3ccc(F)cc3)cc3c2N1CCC3
10%	COc1cc(C(=O)Nc2ccncc2)c([N+](=O)[O-])cc1OC
-7%	CCOc1cc(Br)c(CC(=O)O)cc1OCC
9%	CC(=O)N/N=C\c1ccccc1OC/C=C/c1ccccc1
11%	CCSc1nnc(-c2ccncc2)o1
?	CC1=NNC(=O)/C1=C\c1cn(-c2ccccc2)nc1-c1ccccc1
-8%	O=C(NN1C(=O)C2C3CCC(O3)C2C1=O)c1ccc(Br)o1 (stereo not drawn)
10%	Cc1ccc(Nc2sc(C(=O)c3ccccc3)c(N)c2C(=O)NC(C)C)cc1
56µM*	O=C(CCN1CCOCC1)c1ccc2c(c1)OCCO2
-7%	CCOC(=O)/C=C/C(=O)Nc1ccc(S(=O)(=O)Nc2cc(C)on2)cc1
-18%	CC1(C)Cc2c(sc(NC(=O)COc3ccccc3)c2C#N)C(C)(C)N1
7%	COc1cc(OC)c(NC(=O)c2c3c(nc4ccccc24)C(=O)N(C2CCCCC2)C3)cc1Cl
15%	O=C(NCc1cccc(F)c1)c1ccc(CS(=O)c2ccccc2Cl)o1 (stereo not drawn)
-5%&-13%	Cc1ccc(NC(=O)C2CCN(S(=O)(=O)c3cccs3)CC2)cc1
-18%	CN(C(=O)COC(=O)c1ccc(Cl)c(S(=O)(=O)N2CCCCCC2)c1)C1CCS(=O)(=O)C1 (stereo not drawn)
-13%	O=C(C(Cl)c1ccccc1)N1CCOCC1 (stereo not drawn)
-4%	CCn1c(SCC(=O)c2ccccc2)nnc1-c1cccnc1
15%	CCOC(=O)c1c(C)[nH]c(C)c1S(=O)(=O)N1CCCC(C(=O)Nc2cc(C)ccc2C)C1 (stereo not drawn)
-8%	C/C(=N\NC(=O)c1cccc(Br)c1)c1cccnc1
-27%	CC1CCCCC12NC(=O)N(CC(=O)NCCc1c[nH]c3ccccc13)C2=O (stereo not drawn)
-4%	O=c1[nH]c2cc3c(cc2cc1CN(Cc1cccnc1)C(=S)NCc1ccco1)OCO3
9%	Cc1cccc(NC(=O)CSc2nc(=O)n(Cc3cccnc3)c3c2CCC3)c1
20%	COC(=O)C(/C=N/O)NC(=O)c1ccccc1 (stereo not drawn)
-3%	CCOc1ccc(NC(=O)CSc2ncc(-c3ccc(F)cc3)n2Cc2ccco2)cc1
19%	O=C(CCCn1ncn2c(cc3occc32)c1=O)NCc1cccc(Cl)c1
-3%	CCOc1cc(N2CCOCC2)c(OCC)cc1NC(=O)COC(=O)CCn1c(C)csc1=O
9%	C[C@@H]1CN([C@@H](C)CO)C(=O)c2cccc(NC(=O)C3CCCCC3)c2O[C@@H]1CN(C)Cc1ccc(Cl)c(Cl)c1
-14%	CN(C)S(=O)(=O)c1ccc(N2CCCC2)c(C(=O)NCc2ccccc2)c1
-5%	COc1ccc(S(=O)(=O)N2CCOC2CNC(=O)C(=O)NCCc2c[nH]c3ccccc23)cc1C (stereo not drawn)
-6%	O=C1C(c2ccccc2)NC(=S)N1C1CCCCC1 (stereo not drawn)
3%	COc1ccc(CNC(=O)CN(c2ccccc2)S(=O)(=O)c2ccccc2[N+](=O)[O-])cc1
4%	O=C(NC1CCCC1)c1ccccc1-c1ccccc1

# Additional entries
VDR inh	SMILES
-3%	CN(CC(=O)O)S(=O)(=O)c1ccc2c(c1)n(C)c(=O)c(=O)n2C
-12%	CCC(C)NCCC(=O)Nc1ccc(Cl)c(S(=O)(=O)Nc2ccc(Cl)cc2)c1 (stereo not drawn)
-9%	CC1(C)OC(=O)C(=CNc2ccccn2)C(=O)O1
-8%	CCOC(=O)c1c(NC(C)=O)c2c3c(sc2n1Cc1ccc(Cl)cc1)CCCC3
10%	CC(=O)C1=C(O)C(=O)N(c2ccc(S(N)(=O)=O)cc2)C1c1ccc([N+](=O)[O-])cc1 (stereo not drawn)
-13%	O=C(NNC(=S)NCc1ccco1)c1ccccc1Br
4%	COCCCNC(=S)Nc1ccc2nc3n(c(=O)c2c1)CCCCC3
?	COc1cc(/C=C2/C(=O)N(c3cccc(Br)c3)N=C2C)cc(OC)c1O
5%	CCN(CC)S(=O)(=O)c1ccc(NC(=O)c2c(C)oc3ncnc(N4CCCCC4)c23)cc1
-3%	COc1ccc(CN(CC(=O)NCCc2ccccc2)C(=O)CCC(=O)Nc2cc(C)ccn2)cc1
4%	O=C(c1ccc(-c2ccc(Cl)cc2)o1)N1CCN(c2ccc([N+](=O)[O-])cc2Cl)CC1
?	Oc1ccc(Cl)cc1C1C=C(c2ccc3c(c2)OCO3)NC(c2c(F)cccc2Cl)N1 (stereo not drawn)

# VDR inh: what is marked active above
VDR inh	SMILES
56µM*	O=C(CCN1CCOCC1)c1ccc2c(c1)OCCO2

# Later entries.
VDR inh	SMILES
0%	CC(C)Cn1c(N)c(C(=O)CCl)c(=O)n(C)c1=O
9%	CSc1nnc(C)c(=O)n1COC(=O)COc1ccc(F)cc1
-4%	O=C(NCCCc1ccccc1)c1ccc(CS(=O)Cc2ccc(Cl)cc2)o1 (stereo not drawn)
?	N#Cc1cccc(CS(=O)(=O)c2nnnn2C2CCCCC2)c1
4%	Cc1nnsc1C(=O)Nc1ccccc1Cl
-11%	Cn1cc(S(=O)(=O)N2CCCC2)cc1C(=O)NCCc1ccccc1
-10%	O=C(O)COc1ccc2oc3ccccc3c2c1
7%	CCOC(=O)CSc1nc(C)c2cccc(C)c2n1
8%	CCOC(=O)C1=C(CN2CCSCC2)NC(=O)NC1c1ccc2c(c1)OCO2 (stereo not drawn)
-9%	COc1ccc(C(=O)OCCCc2cc3ccccc3c(=O)o2)cc1
6%	Cc1ccc(OCCN2CCN(C)CC2)c([N+](=O)[O-])c1
-19%	CCOc1ccccc1Nc1ccc(C(=O)O)cc1NC(C)=O
6%	Cc1cc(/C=C2\SC(=O)NC2=O)c(C)n1-c1ccc(N2CCOCC2)cc1
4%	Cc1ccc(N(C(=O)c2ccc(CN3CCOCC3)o2)C(C(=O)NCCC(C)C)c2cccs2)c(C)c1 (stereo not drawn)
32µM*	Cc1cc(O)c(C(C)C)cc1N=Cc1ccccc1[N+](=O)[O-]
6%	O=C(Nc1ccc(N2CCOCC2)c(Cl)c1)c1ccco1
-3%	C[C@@H]1CC[C@]2(O[C@H](CCO)C[C@H](O)[C@H]2O)O1
4%	O=C(CSCC(=O)Nc1cccc2ccccc12)Nc1cccc2ccccc12
-17%	Cc1ccc(Nc2nnc(-c3cc4c(ccc5ccccc54)oc3=O)s2)cc1
0%	Cc1nn(-c2ccccc2)c(C)c1NC(=O)Cc1cccs1
-16%	CC(=O)Nc1ccc(S(=O)(=O)N2CCN(c3cc(C)ccc3C)CC2)cc1
5%&13%	Cc1nn(C(C)C(=O)NCc2ccco2)c(=O)c2nn(-c3ccccc3)c(C)c12 (stereo not drawn)
3%	Cc1cc(C)cc(-n2c(SCC(=O)N3CCOCC3)nc3c([nH]c4ccccc43)c2=O)c1
-19%	CC(=O)Nc1ccc(S(=O)(=O)n2cnc3cc(C)c(C)cc32)cc1
5%	O=C(CN1CCCCCC1)Nc1ccc(S(=O)(=O)N2CCCCC2)cc1
4%	O=C(NCc1ccc2c(c1)OCO2)c1c(O)c2cccc3c2n(c1=O)CCC3
-27%	Cc1cccc(C(=O)NCCCN(C)CCCNC(=O)c2cccc(C)c2)c1
-15%	CCCCCCCCCCOC(=O)NC1CCS(=O)(=O)C1 (stereo not drawn)
-24%	CCOc1ccc(NC(=O)CC2C(=O)N(CC)C(=S)N2CCN2CCOCC2)cc1 (stereo not drawn)
-3%	CCc1c(C)nc2cc(-c3ccc(OC)c(OC)c3)nn2c1N1CCCC1
-19%	COCCn1c(=O)c(C)nc2cnc(Oc3cccc(Cl)c3)nc21
-9%	CCc1ccc(NC(=O)CSc2nc(N)c(NC(=O)c3ccc(F)c(F)c3)c(=O)[nH]2)cc1
13%	OC(C#Cc1ccccc1)(c1ccccc1)c1ccccc1
?	COc1ccc(S(=O)(=O)N(C)CC(=O)NCCN2CCOCC2)cc1C
7%	O=C(CCn1c(=O)c2ccccc2n(Cc2cc(=O)n3ccccc3n2)c1=O)NCc1ccco1
6%	CCCN(Cc1ccccc1)C(=S)Nc1ccc(OCC)cc1
?	O=C(c1ccccc1)N1CCCC(C(=O)N2CCN(c3ccccc3)CC2)C1 (stereo not drawn)
6%	O=c1cc(CSc2nnnn2-c2ccccc2)nc2sccn12
-7%	COc1ccc(C2C(C#N)=C(N)OC3=C2C(=O)CC(C)(C)C3)c([N+](=O)[O-])c1OC (stereo not drawn)
12%	COc1ccc(C(=O)Nc2ccc3oc(Cc4ccc(Cl)cc4)nc3c2)cc1OC
4%	N#Cc1nc(COc2ccc(-c3ccccc3)cc2)oc1NCCCN1CCOCC1
-24%	CCCCn1nnc(NC(=O)C(c2ccccc2)c2ccccc2)n1
-11%	OC(c1ccccc1)c1nc2ccccc2[nH]1 (stereo not drawn)
11%	CCc1ccc(NC(=O)CCCn2nc(CC)n3c(cc4occc43)c2=O)cc1
3%	O=C(COC(=O)Cc1ccc(F)cc1)Nc1cc(S(=O)(=O)N2CCOCC2)ccc1N1CCCC1
-6%	CN1CCC(N(C)C(=O)c2ccc(Cl)c(S(=O)(=O)N(C)c3ccc(Cl)cc3)c2)CC1
-6%	COc1cccc(CNC(=O)c2ccc3c(c2)N(Cc2ccc(C(F)(F)F)cc2)C(=O)c2ccccc2S3)c1OC

# Filtered by structure, the entries above containing a furan ring, fused or not
VDR inh	SMILES
-5%	CC(OC(=O)c1ccc(Br)o1)C(=O)Nc1ccc2c(c1)OCCO2 (stereo not drawn)
-22%	S=C(NCc1ccco1)Nc1cc(Cl)c(Cl)cc1Cl
-8%	O=C(NN1C(=O)C2C3CCC(O3)C2C1=O)c1ccc(Br)o1 (stereo not drawn)
15%	O=C(NCc1cccc(F)c1)c1ccc(CS(=O)c2ccccc2Cl)o1 (stereo not drawn)
-4%	O=c1[nH]c2cc3c(cc2cc1CN(Cc1cccnc1)C(=S)NCc1ccco1)OCO3
-3%	CCOc1ccc(NC(=O)CSc2ncc(-c3ccc(F)cc3)n2Cc2ccco2)cc1
19%	O=C(CCCn1ncn2c(cc3occc32)c1=O)NCc1cccc(Cl)c1
-13%	O=C(NNC(=S)NCc1ccco1)c1ccccc1Br
5%	CCN(CC)S(=O)(=O)c1ccc(NC(=O)c2c(C)oc3ncnc(N4CCCCC4)c23)cc1
4%	O=C(c1ccc(-c2ccc(Cl)cc2)o1)N1CCN(c2ccc([N+](=O)[O-])cc2Cl)CC1
-4%	O=C(NCCCc1ccccc1)c1ccc(CS(=O)Cc2ccc(Cl)cc2)o1 (stereo not drawn)
-10%	O=C(O)COc1ccc2oc3ccccc3c2c1
4%	Cc1ccc(N(C(=O)c2ccc(CN3CCOCC3)o2)C(C(=O)NCCC(C)C)c2cccs2)c(C)c1 (stereo not drawn)
6%	O=C(Nc1ccc(N2CCOCC2)c(Cl)c1)c1ccco1
5%&13%	Cc1nn(C(C)C(=O)NCc2ccco2)c(=O)c2nn(-c3ccccc3)c(C)c12 (stereo not drawn)
7%	O=C(CCn1c(=O)c2ccccc2n(Cc2cc(=O)n3ccccc3n2)c1=O)NCc1ccco1
11%	CCc1ccc(NC(=O)CCCn2nc(CC)n3c(cc4occc43)c2=O)cc1

# Not all compounds are listed, so the mix of outcomes need not match the whole.
